Screening results as filed in PubChem BioAssay.
MARV entry inh = Marburg virus entry inhibition; Marburg virus pseudotyped entry inhibition, cell reporter; control for the full effect not named in the record; about a third of the inactives were read at about 46 µM; Potency, µM (highest dose often 37.8 µM), without a hit: at the highest dose activity change, negative = inhibition, usual class: inhibitors; 1.8% of 300,000 active; active = well fitted inhibition curve with a large enough effect; inconclusive = small, poorly fitted or top-dose-only effect, or effect the other way; inactive = flat fitted curve, though single readings scatter; tested in HEK293 cells; about a fifth of its hits are not listed in these tables; note: % is set by controls: 0 for no effect and ±100 for the full control effect; luciferase read-out
NS1 function inh = blocks influenza NS1 protein function; S. cerevisiae slowed by influenza A NS1, growth recovery by OD600; Potency, µM (top dose mostly 46.1 µM), for the others: at the highest dose activity, positive = more growth; 0.4% of 270,000 active; note: actives are rising curves; nearly all actives have a fitted effect of over 50% in size
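Read-out: OD600 growth recovery of NS1-expressing budding yeast. Cells grown overnight at 30C in -URA glucose medium, washed, resuspended and diluted 1:100 in 2% galactose assay medium, pH 6.0. Same strain lacking NS1 served as positive control.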
Cruzain Triton = blocks cruzain activity in presence of Triton detergent; AID 1478; P25779; 0.43% of 200,000 active; purified cruzain, Z-FR-AMC fluorescence, 0.01% Triton; Potency, µM, inactives show max response, negative = inhibition, usual class: inhibitors; active = well fitted curve in the direction sought with a large enough effect; inconclusive = small, poorly fitted or top-dose-only effect, or another doubt; inactive = no such curve, though single readings can be large; an effect the other way counts as inactive or inconclusive;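 note: plate controls were neutral wells for no effect and buffer without enzyme for full effect; nearly all actives have a fitted effect of over 40% in size; top concentration of the series not given in the record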
Target sequence (P25779 123-467 limits assumed): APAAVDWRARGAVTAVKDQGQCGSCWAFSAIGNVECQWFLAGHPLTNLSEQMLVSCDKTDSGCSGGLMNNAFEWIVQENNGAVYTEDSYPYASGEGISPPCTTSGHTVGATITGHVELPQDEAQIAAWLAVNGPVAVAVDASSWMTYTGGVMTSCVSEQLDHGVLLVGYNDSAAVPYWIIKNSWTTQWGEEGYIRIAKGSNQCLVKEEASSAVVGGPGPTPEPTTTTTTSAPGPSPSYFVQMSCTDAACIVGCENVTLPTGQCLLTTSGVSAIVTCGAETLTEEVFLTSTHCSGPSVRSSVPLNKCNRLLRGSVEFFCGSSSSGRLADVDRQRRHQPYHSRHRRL
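Enzyme 1.5 nM, Z-FR-AMC 2 uM, NaOAc 100 mM pH 5.5, DTT 5 mM, Triton X-100 0.01%; 15 min RT compound preincubation; kinetic ex360/em450, 60 s delta.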
2A StopGo = lowers the luciferase signal of an FMDV 2A StopGo reporter; human cells with a luciferase reporter of 2A StopGo recoding; control for the full effect not named in the record; Potency, µM (highest dose often 57.9 µM), without a hit: top-dose signal change, negative = less light; 1.2% of 410,000 active; active = well fitted falling curve with a large enough effect; inconclusive = small, poorly fitted or top-dose-only effect; inactive = no such curve, though single readings can be large or run the other way; tested in HEK293T cells; note: % is set by controls: 0 for no effect and ±100 for the full control effect; nearly all actives have a fitted effect of over 45% in size; luciferase light after 4 h
LASV entry inh = inhibitors of Lassa virus binding or cell entry | Lassa virus pseudotype entry inhibition, cell reporter; control for the full effect not named in the record | Potency, µM (top dose mostly 37.9 µM), for inactives: at the top dose activity change, negative = inhibition, hits mostly inhibitors | 1.2% of 300,000 active | AID 540256; active means well fitted inhibition curve with a large enough effect; inconclusive means small, poorly fitted or top-dose-only effect, or effect the other way; inactive means flat fitted curve, though single readings scatter; tested in HEK293 cells; note: % is set by controls: 0 for no effect and ±100 for the full control effect; nearly all actives have a fitted effect of over 50% in size; luciferase read-out
RE007 growth inh = less growth of the S. pombe RE007 Vpr strain; AID 651644; 0.21% of 360,000 active; Potency, µM (top dose mostly 92.2 µM), for inactives: at the highest dose activity change, negative = less growth; S. pombe RE007 Vpr strain, BacTiter-Glo ATP luminescence, 24 h; control for the full effect not named in the record; active = well fitted falling curve with a large enough effect; inconclusive = small, poorly fitted or top-dose-only effect; inactive = no such curve, though single readings can be large or run the other way;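 note: % is set by controls: 0 for no effect and ±100 for the full control effect; nearly all actives have a fitted effect of over 50% in size; the assay follows cell death caused by Vpr and the record does not say whether a fall means rescue or toxicity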
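Fission yeast RE007 carrying one integrated HIV-1 vpr copy, seeded at OD 0.01 in PMG+AL medium with 23 nL pinned compound. Grown 24 h at 30 degrees; viability read by BacTiter-Glo luminescence after 5 min.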
SARS PLpro yeast = SARS-CoV PLP inhibition in yeast; S. cerevisiae expressing SARS-CoV PLpro, growth rescue; control for the full effect not named in the record; Potency, µM (highest dose often 32.9 µM), for inactives: at the highest dose activity, positive = growth rescue; 0.19% of 330,000 active; AID 485353; note: 0% is about no effect; nearly all actives have a fitted effect of over 55% in size; growth read by luminescence after 48 h
Cruzain noTriton = cruzain (T. cruzi) inhibition without detergent | purified cruzain, Z-FR-AMC fluorescence, no detergent | 2.3% of 200,000 active | P25779 | Potency, µM, for inactives: max response, negative = inhibition, usual class: inhibitors; active = well fitted curve in the direction sought with a large enough effect; inconclusive = small, poorly fitted or top-dose-only effect, or another doubt; inactive = no such curve, though single readings can be large; an effect the other way counts as inactive or inconclusive;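 note: plate controls were enzyme without inhibitor for no effect and buffer without enzyme for full effect; nearly all actives have a fitted effect of over 40% in size; top concentration of the series not given in the record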
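Purified cruzain at 1.5 nM, pre-incubated 15 min with compound at room temperature in 100 mM sodium acetate pH 5.5, 5 mM DTT, 0.00005% Triton X-100. Reaction started with 2 uM Z-FR-AMC; AMC fluorescence increase over 60 s gives rate.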
The depositor's hits bear a star; ? = inconclusive; nt = no result given; & = joins results of further samples; [ ] = dose if it differs, or a comment. Unless noted, calls come from the whole dose curve; as a rule, active means well fitted rising curve with a large enough effect; inconclusive means small, poorly fitted or top-dose-only effect; inactive means no such curve, though single readings can be large or run the other way. Potency is the fitted concentration of half-maximal effect.

1) O=C(O)CN1C(=O)/C(=C\C(Br)=C\c2ccccc2)SC1=S
2) CC1CC(=O)N(CC(=O)N2CCCC2)c2ccccc2S1 (stereo not drawn)
3) CCOc1ccc(Nc2nc(N3CCCCC3)nc(N3CCCCC3)n2)cc1
4) COc1cc(C(C)=O)ccc1OC(=O)C(C)N1C(=O)c2ccccc2C1=O (stereo not drawn)
5) COc1nc(Nc2nc3ccccc3c(=O)[nH]2)nc2ccc(C)cc12
6) O=C(c1cnn2c(C(F)F)cc(C3CC3)nc12)N1CCOCC1
7) CC(C)c1ccc(S(=O)(=O)N2CCC(C(=O)NCC3(N(C)C)CCCCC3)CC2)cc1
8) Cc1cccc(C)c1OCCCN1CCCC1

Assay by compound | 1 | 2 | 3 | 4 | 5 | 6 | 7 | 8
SARS PLpro yeast | 0% | -1% | 1% | -1% | 0% | -5% | 0% | -9%
LASV entry inh | 0% | 16% | ? | 23% | nt | 14% | 3% | -8%
2A StopGo | -15% | 0% | nt | nt | 45% | -20% | -17% | -3%
Cruzain Triton | nt | -6.3% | -4.3% | -5.1% | nt | 4.3% | nt | -1.0%
MARV entry inh | ? | 13% | ? | 7% | nt | 11% | ? | -16%
RE007 growth inh | 7% | 16% | -4% | -4% | -2% | 3% | -29% | -3%
NS1 function inh | -43% | 2% | 2% | -43% | -6% | -38% | -2% | 7%
Cruzain noTriton | nt | -14% | -13% | 5% | nt | -1% | nt | -5%

9) Oc1c(Br)cc(Cl)cc1C=Nc1ccccc1Br
10) COc1ccc(O)c(/C=C(\C#N)C(=O)Nc2cccnc2)c1
11) CC(C)(C)OC(=O)N1CCC(c2c(C(=O)NCCN3CCOCC3)cnn2-c2ccc(F)cc2)CC1
12) Cc1cccc(CN2C[C@]34CC[C@@H](C[C@@H]3S2(=O)=O)O4)c1
13) COC(=O)C1Sc2[nH]c(=O)sc2C(c2ccc(Cl)cc2)C1C(=O)OC (stereo not drawn)
14) Cc1ccc(NCc2nnc(SC(C)C(=O)N/N=C/c3ccc(C)o3)n2-c2ccccc2)cc1 (stereo not drawn)
15) CCOC(=O)N1CCN(C(=O)CN(c2ccccc2OC)S(=O)(=O)c2ccc(C)cc2)CC1
16) COc1cc(C2C(C#N)=C(N)OC3=C2C(=O)CC(C)(C)C3)ccc1OC(=O)N1CCOCC1 (stereo not drawn)

Assay by compound | 9 | 10 | 11 | 12 | 13 | 14 | 15 | 16
SARS PLpro yeast | -13% | 10% | nt | 4% | 7% | -30% | 2% | -3%
LASV entry inh | 5% | ? | -11%[46.1 µM] | nt | nt | -10% | -26% | 12%
2A StopGo | 0% | 39%[activator] | 0% | -9% | -19% | -3% | 28% | nt
Cruzain Triton | -5.4% | -1.8% | -0.1% | nt | -3.6% | 0.7% | 2.5% | -5.4%
MARV entry inh | -26% | ? | nt | nt | nt | 13%[46.1 µM] | 2%&-5% | -3%
RE007 growth inh | -12% | 0% | nt | 2% | -9% | -3% | -2% | 0%
NS1 function inh | -4% | 13% | nt | 5% | -5% | 15% | -3% | -2%
Cruzain noTriton | -16% | 3% | 23% | nt | -7% | 5% | ? | -4%

17) O=C(CNC(=O)c1ccc(F)cc1)NCc1ccc(Cl)cc1
18) CCOc1ccc(CCNC(=O)c2cn(CC)c3ccc(S(=O)(=O)N4CCc5ccccc5C4)cc3c2=O)cc1OCC
19) O=c1c2c(nc3n1CCCCC3)sc1c(O)c(Br)ccc12
20) C=COCCn1c(C)c(C(C)=O)c2cc(O)ccc21
21) Cc1nn(Cc2ccc([N+](=O)[O-])cc2)c(=O)n1-c1cccc(F)c1
22) COc1ccc(CC(=O)NCc2ccccc2)cc1OC
23) O=c1[nH]nc(-c2n[nH]c(=O)o2)o1
24) CC(=O)Nc1ccc(OCC(O)CN2CCCCC2C)cc1 (stereo not drawn)

Assay by compound | 17 | 18 | 19 | 20 | 21 | 22 | 23 | 24
SARS PLpro yeast | -1% | nt | -10% | 0% | -1% | 0% | nt | -9%
LASV entry inh | 11% | -11%[46.1 µM] | ? | -11% | -5% | -13%[46.1 µM] | 2% | 18%
2A StopGo | 6% | -16% | -34% | ? | 25% | -19% | -7% | -5%
Cruzain Triton | nt | -2.4% | -2.3% | nt | 3.2% | nt | nt | 0.2%
MARV entry inh | 2%[46.1 µM] | 15%[46.1 µM] | ? | 0%[46.1 µM] | ? | ? | 1% | 23%
RE007 growth inh | -1% | nt | -7% | 3% | 5% | 8% | 9% | 14%
NS1 function inh | 5% | nt | -49% | 0% | -13% | 16% | nt | 5%
Cruzain noTriton | nt | ? | ? | nt | 14% | nt | nt | 7%

Continued; the last 4 above are carried over.
21) Cc1nn(Cc2ccc([N+](=O)[O-])cc2)c(=O)n1-c1cccc(F)c1
22) COc1ccc(CC(=O)NCc2ccccc2)cc1OC
23) O=c1[nH]nc(-c2n[nH]c(=O)o2)o1
24) CC(=O)Nc1ccc(OCC(O)CN2CCCCC2C)cc1 (stereo not drawn)
25) CCC1(CC)NC(=O)N(CC(=O)N2CCN(S(=O)(=O)c3cccc(F)c3)CC2)C1=O
26) CC(C)Oc1ccc(CN2CCC(n3nccc3NC(=O)C3CC3)CC2)cc1
27) C=CCSc1[nH]c(=O)cc(C)c1C(N)=O
28) CC(=O)NCc1ccc(C(=O)CN2C(=O)NC3(CCCCC3C)C2=O)s1 (stereo not drawn)
29) COc1ccc(N(C)C(=O)c2ccc3nc(-c4ccccc4)c(-c4ccccc4)nc3c2)cc1
30) O=C(CSC1=Nc2ccccc2C2=NC(Cc3ccccc3)C(=O)N12)Nc1ccccc1F (stereo not drawn)
31) CCCCNC(=O)CSc1nnc(NC(C)=O)s1
32) CCC1CCCCN1C(=O)CCCOc1ccccc1 (stereo not drawn)

Assay by compound | 21 | 22 | 23 | 24 | 25 | 26 | 27 | 28 | 29 | 30 | 31 | 32
SARS PLpro yeast | -1% | 0% | nt | -9% | 3% | -1% | 2% | 2% | -3% | nt | 1% | 8%
LASV entry inh | -5% | -13%[46.1 µM] | 2% | 18% | 9% | -3% | 11% | 8%[46.1 µM] | ? | ? | 6% | ?
2A StopGo | 25% | -19% | -7% | -5% | -12% | -1% | 18% | 4% | ? | -15% | -6% | -22%
Cruzain Triton | 3.2% | nt | nt | 0.2% | nt | nt | 3.7% | nt | -1.0% | 3.8% | 4.6% | -0.3%
MARV entry inh | ? | ? | 1% | 23% | 0% | -3% | 4% | 13% | ? | nt | -4% | 25%
RE007 growth inh | 5% | 8% | 9% | 14% | 1% | 1% | -3% | -1% | 13% | nt | -5% | -4%
NS1 function inh | -13% | 16% | nt | 5% | 12% | 2% | 3% | nt | 24% | nt | -1% | -1%
Cruzain noTriton | 14% | nt | nt | 7% | nt | nt | 7% | nt | -4% | ? | -8% | ?

33) COc1cc(Cl)ccc1OCc1cc(C(=O)N[C@H]2CCCCNC2=O)no1
34) O=C(NCc1cccnc1)C(=O)Nc1nc(C23CC4CC(CC(C4)C2)C3)cs1
35) CCN(CC(=O)Nc1ccccc1OC)CC(=O)Nc1sccc1C#N
36) COCC1CCCN(C(=O)c2ccc(OC3CCN(Cc4ccccn4)CC3)cc2)C1 (stereo not drawn)
37) CCOC(=O)c1cc(S(=O)(=O)N2CCN(c3cccc(C)c3)C(C)C2)[nH]n1 (stereo not drawn)
38) N#CCCn1cc(C(=O)O)c(-c2ccc3ccccc3c2)n1
39) CC1C(c2ccccc2)=NNc2nc3c(c(=O)n(C)c(=O)n3C)n21 (stereo not drawn)
40) CN1C(=O)C(O)(CC(=O)c2cccs2)c2ccccc21 (stereo not drawn)

Assay by compound | 33 | 34 | 35 | 36 | 37 | 38 | 39 | 40
SARS PLpro yeast | 2% | -11% | 2% | 0% | nt | -2% | -1% | 0%
LASV entry inh | nt | -1%[46.1 µM] | -8% | 21%[46.1 µM] | -1%[46.1 µM] | 0% | nt | 1%
2A StopGo | 15% | ? | 0% | -3% | -2% | -5% | ? | -11%
Cruzain Triton | nt | nt | nt | nt | -9.0% | nt | nt | nt
MARV entry inh | nt | ? | 0% | -9%[46.1 µM] | nt | 15% | nt | 17%
RE007 growth inh | 3% | -3% | 41% | -21% | nt | 3% | -5% | -3%
NS1 function inh | -2% | 21% | nt | -3% | nt | -6% | 2% | -3%
Cruzain noTriton | nt | nt | nt | nt | 4% | nt | nt | nt

41) OC1CCCN(c2c3c(nc4cc(-c5cccc(F)c5)nn24)CCCC3)C1 (stereo not drawn)
42) CC(C)(C)NC(=O)C(c1ccc(O)cc1)N(C(=O)Cn1nnc(-c2ccc(F)cc2)n1)c1ccccc1F (stereo not drawn)
43) Cc1csc2ncc(C(=O)Nc3cccc(C(F)(F)F)c3)c(=O)n12
44) Cc1ccc(NC2CCCN(C(=O)CSc3ccncc3)C2)cc1C (stereo not drawn)
45) O=c1ccc2cc(S(=O)(=O)N3CCN(c4ccc(Cl)cc4)CC3)ccc2o1
46) O=C(CN1C(=O)NC2(CCCC2)C1=O)OCc1cc(=O)n2cc(Br)ccc2n1
47) CCCCn1c(N)c(N(CCOC)C(=O)c2oc3ccc(Br)cc3c2C)c(=O)[nH]c1=O
48) CCOC(=O)c1ccc(NC(=O)CSc2nnnn2C2CCCCC2)cc1

Assay by compound | 41 | 42 | 43 | 44 | 45 | 46 | 47 | 48
SARS PLpro yeast | -1% | 1% | -9% | -3% | -3% | -3% | nt | 29%
LASV entry inh | ? | nt | nt | -3%[46.1 µM] | nt | nt | -13% | 6%
2A StopGo | 24% | -1% | 8% | -4% | -16% | -15% | -13% | -9%
Cruzain Triton | nt | nt | -0.8% | nt | nt | nt | nt | 1.0%
MARV entry inh | ? | nt | nt | 11%[46.1 µM] | -4%[46.1 µM] | nt | -19% | 25%
RE007 growth inh | 1% | -12% | -24% | -1% | 18% | -12% | -27% | 5%
NS1 function inh | -13% | 6% | -20% | 11% | 3% | 4% | nt | 0%[9.22 µM]
Cruzain noTriton | nt | nt | ? | nt | nt | nt | nt | ?
